# High-throughput results: PubChem, National Center for Advancing Translational Sciences (NCATS)
# StopGo RLuc – FMDV 2A StopGo reporter, Renilla signal | HEK cells with a luciferase reporter of 2A StopGo recoding | Potency, µM (highest dose often 57.5 µM), inactives show top-dose signal change, negative = less light | 0.32% of 120,000 active; active means well fitted falling curve with a large enough effect; inconclusive means small, poorly fitted or top-dose-only effect; inactive means no such curve, though single readings can be large or run the other way; also: nearly all actives have a fitted effect of over 55% in size; overnight with compound
# 2A firefly – FMDV 2A StopGo reporter, firefly signal | HEK cells with a luciferase reporter of 2A StopGo recoding | Potency, µM (series often up to 57.5 µM), inactives show at the top dose signal change, negative = less light | 0.23% of 120,000 active | AID 1745856; active = well fitted falling curve with a large enough effect; inconclusive = small, poorly fitted or top-dose-only effect; inactive = no such curve, though single readings can be large or run the other way; also: nearly all actives have a fitted effect of over 60% in size; overnight with compound
# * hit, by the source's call; ? = inconclusive; [ ] = remark or other dose. % is scaled to controls: 0 for no effect and ±100 for the full control effect; potency is read from the fitted curve at half-maximal effect. This is a subset (hit frequency here may not be typical).
structure | StopGo RLuc | 2A firefly
Cc1ccc(C(=O)Nc2ccccc2C(F)(F)F)c(Cl)c1 | 16% | 139%[activator]
CC(=O)Oc1ccc(OC(C)=O)c2ccccc12 | ? | ?
O=C(NCc1coc(-c2cccs2)n1)c1ccc(N2CCCC2)c([N+](=O)[O-])c1 | 0% | 23%
COc1ccc2c(c1)CCc1c(C(=O)Nc3ccc(F)c(Cl)c3)noc1-2 | 0% | 27%
Cc1ccc(SC(C)C(=O)Nc2ccc(C)cc2C)cc1 (stereo not given) | 6% | 8%
CCCCCn1nc(C(=O)N(C)Cc2ccccc2Cl)c2ccccc2c1=O | 150%[activator] | ?
Cc1cc(O)c(C(c2ccc(F)cc2)N2CCN(c3ccccc3)CC2)c(=O)n1Cc1ccco1 (stereo not given) | 172%[activator] | 0%
CC(C)N1C[C@@H](C)C(=O)C[C@@H]1C | -9% | -14%
COc1ccc(-c2nc3ccccc3o2)cc1NC(=O)c1ccc(-c2cccc(Cl)c2C)o1 | -9% | 14%
CN(C(=O)COC(=O)Cn1cnc2c1c(=O)n(C)c(=O)n2C)c1ccccc1 | 19% | 0%
CCN(CC)Cc1c(NC(=O)c2ccc(OC)cc2)sc2c1CCCC2 | 44%[activator] | 195%[activator]
N#CC1=C(N)OC2=C(C(=O)CCC2)C1c1cccc2ccccc12 (stereo not given) | 5% | -1%
CCOC(=O)N1CCN(C(=O)CN(c2cc(C)ccc2OC)S(C)(=O)=O)CC1 | -3% | -6%
CC(C)CCOc1ccc(/C=C(/CC(=O)O)c2nc3ccccc3s2)cc1 | 11% | 8%
CC(=O)N1CCN(C(C(=O)O)c2c[nH]c3cc(F)ccc23)CC1 (stereo not given) | -8% | -9%
COC(=O)c1ccc(/C=C/c2nc3ccc(OC)cc3s2)cc1 | 7% | -27%
CCOc1ccc(-c2[nH]nc3c2C(c2cn[nH]c2-c2ccc(F)cc2)C(C#N)=C(N)O3)cc1 (stereo not given) | -6% | 0%
Cc1ccc(NC(=O)C(Sc2nnc(-c3ccco3)n2N)c2ccccc2)cc1 (stereo not given) | 78%[activator] | 94%[activator]
CCCCOc1ccc(C(=O)NCCc2sc3nc(-c4ccc(OC)cc4)nn3c2C)cc1 | -11% | -14%
CCCCOc1ccc(NC(=O)CSc2ccc(C(=O)O)cn2)cc1 | -5% | 11%
CCN(CC)c1nc2c(c(=O)[nH]c(=O)n2C)n1CCCc1ccccc1 | 0% | 10%
O=C(Nc1ccc(Cl)cc1F)c1ccc(=O)n(CCOc2ccccc2)n1 | -11% | -3%
O=C(Nc1cc(C(F)(F)F)ccc1Cl)c1c(F)cccc1F | 19% | 18%
CNC(=O)/C=C/c1cccc(F)c1 | 5% | 20%
CCCCc1nn2c(=O)cc(COC(=O)c3ccc(NC(=O)c4cccc(OC)c4)cc3)nc2s1 | -7% | -12%
N#Cc1c(C(F)(F)F)cc(-c2cccs2)nc1SCc1ccc(F)cc1 | -6% | -11%
CCOc1ccc(S(=O)(=O)N2CCOCC2)cc1NC(=O)c1oc2ccccc2c1C | -8% | -9%
CC1(C)Cc2c(sc3ncn4nc(C(=O)NCc5ccco5)nc4c23)CO1 | -15% | -8%
O=Cc1cc(Cl)cc(Cl)c1O | -6% | -10%
Cc1ccc(Cl)c(OCC(O)CNC(C)(C)C)c1 (stereo not given) | -7% | -18%
Cc1cc(OCc2nnc(SCc3ccc(Cl)cc3)n2C)ccc1Cl | 13% | -3%
CCOC(=O)c1cn(C)nc1S(=O)(=O)N1CCCCC1 | -7% | 10%
Cc1ccc(N2CC(NC(=O)c3ccco3)CC2=O)cc1C (stereo not given) | -12% | -5%
Cc1[nH]c(SCC(=O)Nc2ccc(S(=O)(=O)N3CCCC3)cc2)nc1Cc1ccccc1 | 0% | 17%
Cc1c(C(=O)N(C)Cc2nc3ccsc3c(=O)[nH]2)cnn1-c1ccc(F)cc1F | ? | ?
COc1cc(C(=O)NCC(c2cccnc2)N2CCc3ccccc32)cc(OC)c1OC (stereo not given) | -2% | -16%
COc1ccc(S(=O)(=O)N(CC(=O)NCc2ccc(C)cc2)c2ccc(Cl)cc2)cc1 | 9% | -13%
Cc1cccc(/C=N/Nc2ccc(Cl)c(Cl)c2)c1 | 24% | 226%[activator]
O=C(O)c1ccc(C=Nc2ccc(Br)cc2)cc1 | -3% | 7%
C=CCOc1cccc(NC(=O)CC)c1 | 27% | 56%[activator]
Cc1cccc(Oc2nc3ccccn3c(=O)c2/C=C(\C#N)c2nc3ccccc3s2)c1C | 3% | 0%
Oc1ccc(C2SCCS2)cc1 | -4% | 0%
CNC(=O)NC(NC(=O)c1ccccc1)(C(F)(F)F)C(F)(F)F | 9% | 9%
CC(C)CC(=O)Nc1ccc(C(=O)OCc2cc(=O)n3nc(C(C)C)sc3n2)cc1 | -9% | 35%
CC1=C(C(=O)N2CCOCC2)C(c2ccc(F)cc2)C2=C(CCCC2=O)N1 (stereo not given) | -6% | -11%
COc1ccc(N(CC(=O)N2CCc3ccccc3C2)S(=O)(=O)c2ccccc2)cc1 | 225%[activator] | -6%
CCN(CC)c1ccc(C(=O)NCc2nc3cccnc3n2Cc2ccc(C)cc2)cc1 | 8% | -12%
COc1cccc(C(=O)Nc2cccc(-c3cn4ccsc4n3)c2)c1OC | -2% | 23%
C/C(=N\N=C(N)N)C1CCCCCCCCCCC1 | 3% | 130%[activator]
O=C(CSCn1nnc2c(=O)[nH]c(Cc3ccc(F)cc3)nc21)Nc1cccc(C(F)(F)F)c1 | 8% | 4%
C=C(CS(=O)(=O)c1ccc(C)cc1)S(=O)(=O)c1ccc(C)cc1 | ? | ?
COc1ccccc1NC(=O)CSc1oc(-c2ccc(F)cc2)nc1S(=O)(=O)c1ccc(Br)cc1 | 7% | -23%
CS(=O)(=O)Nc1ccc(NC(=O)c2cc(-c3cccs3)on2)cc1 | 2% | 8%
CNc1nc(-c2cc(C)n(-c3cc(C)on3)c2C)cs1 | 4% | 21%
Cc1cc(C)n(CCc2nc3c4ccccc4nc(SCc4ccc(F)cc4)n3n2)n1 | -11% | -16%
COc1ccc2nc(/C(C#N)=C\c3ccc(I)cc3)[nH]c2c1 | 98%[activator] | 45%[activator]

# Some of these compounds in order of length of the SMILES, rising:
structure | StopGo RLuc | 2A firefly
CNc1nc(-c2cc(C)n(-c3cc(C)on3)c2C)cs1 | 4% | 21%
CS(=O)(=O)Nc1ccc(NC(=O)c2cc(-c3cccs3)on2)cc1 | 2% | 8%
COc1ccccc1NC(=O)CSc1oc(-c2ccc(F)cc2)nc1S(=O)(=O)c1ccc(Br)cc1 | 7% | -23%

# Quoted at random: three compounds from above
structure | StopGo RLuc | 2A firefly
COc1ccccc1NC(=O)CSc1oc(-c2ccc(F)cc2)nc1S(=O)(=O)c1ccc(Br)cc1 | 7% | -23%
C/C(=N\N=C(N)N)C1CCCCCCCCCCC1 | 3% | 130%[activator]
COc1ccc2nc(/C(C#N)=C\c3ccc(I)cc3)[nH]c2c1 | 98%[activator] | 45%[activator]

# The results go on:
structure | StopGo RLuc | 2A firefly
COC(=O)c1c(C)n(Cc2ccccc2)c2ccc(O)cc12 | -1% | 21%
C[C@H](NS(=O)(=O)c1ccc(C(C)(C)C)cc1)C(=O)NCc1cscn1 | 0% | -14%
COc1ccc(CCNC(=O)C2CCN(c3ncnc4c3nc3n4CCCCC3)CC2)c(OC)c1 | 7% | 32%
Cc1occc1-c1nnc(SCC(=O)Nc2cccc(C(F)(F)F)c2)o1 | -6% | 4%
COc1ccc(N2C(=O)c3cc4oc(C)cc4n3CC2(C)C(=O)NC2CCCCCC2)cc1OC (stereo not given) | 9% | -3%
O=C(NCc1cccnc1)c1ccc(-c2ccccc2)cc1 | ? | 13%
CCc1ccc(CNC(=O)c2cc3ccccn3n2)cc1 | ? | 149%[activator]
CN1CCN(C(=O)CN2CCN(C(C(=O)O)c3cn(C)c4ccc(C(=O)O)cc34)CC2)CC1 (stereo not given) | -11% | 3%
O=C(COc1ccc(F)cc1)Nc1cccc(-c2nc3ccccc3o2)c1 | -1% | 97%[activator]
CCOCCCNC(=O)c1cc2c(=O)n(C)c3ccccc3c2n1C | 3% | 7%
O=C(CSc1nc2ccccc2nc1Cc1ccccc1)Nc1ccccc1C(F)(F)F | 0% | -5%
O=C(O)c1ccc(-c2ccc(CNC3CCCCC3)o2)cc1 | 34%[activator] | 103%[activator]
CCN1CCC2(CC1)N=C(SCC(=O)Nc1ccc(F)cc1)C(c1ccc(C)cc1)=N2 | -22% | -15%
COc1ccccc1NC(=O)c1nnn(-c2ccc(F)cc2)c1C | -4% | 3%
O=C(O)c1nn(Cc2ccc(Cl)cc2Cl)c2ccccc12 | -12% | -11%[11.5 µM]
Cc1ccc(CNC(=O)c2c(O)nc3c(C)cccn3c2=O)cc1 | 22% | 23%
O=C(Nc1ccccc1Cl)N(Cc1cccc(O)c1)C1CCC(O)CC1 (stereo not given) | -2% | 2%
CCOc1ccc(S(=O)(=O)NCCc2csc(-c3ccc(Cl)cc3)n2)cc1 | 59%[activator] | ?
CCn1cnc2c1c(=O)n(CC(=O)Nc1ccc3c(c1)OCO3)c(=O)n2Cc1ccccc1 | 5% | 138%[activator]
O=C(c1cc(=O)c2cc(F)ccc2o1)N(Cc1cccs1)c1ccccn1 | 37%[activator] | 8%
CCOC(=O)c1[nH]c(C)c(C(=O)OC(C)C(C)=O)c1C (stereo not given) | 0% | 0%
CCCCc1cc2cc(C(=O)Nc3ccc(C)cc3)ccc2nc1Cl | 0% | 8%
O=C(Nc1ccc2oc(-c3ccccc3F)cc(=O)c2c1)c1ccccc1F | 27% | 242%[activator]
CN(Cc1ccccc1)C(=O)Nc1cccc(CN2CCOC2=O)c1 | 15% | 11%
COCCOC(=O)c1c(C)oc2c1cc(NS(=O)(=O)c1ccc(Cl)c(C)c1)c1ccccc12 | 43%[activator] | -18%
N#Cc1ccccc1Cn1c(SCC(=O)NCc2ccccc2)nc2ccccc21 | -4% | -6%
COc1ccc(NC(=O)CSc2ccc3nc(-c4ccccc4)cn3n2)cc1OC | -15% | 86%[activator]
COc1ccc2c(c1)c1c(c(=O)n(Cc3ccccc3)c(=O)n1Cc1ccccc1Cl)n2C | -2% | -4%
Cc1cccc2sc(NC(=O)c3ccc[n+]([O-])c3)nc12 | 17% | 66%[activator]
O=C(/C=C/c1ccco1)Nc1ccc(F)cc1 | 17% | 82%[activator]
CC(OC(=O)c1nn(C)c(=O)c2ccccc12)C(=O)Nc1ccc(S(=O)(=O)N2CCCCC2)cc1 (stereo not given) | 34%[activator] | -5%
S=C(NCCc1ccccc1)N/N=C/c1cccc(Br)c1 | 8% | 0%
c1n[nH]cc1-c1cn[nH]c1 | -1% | 2%
COc1ccc(-c2cc3nc(C4CCN(C(=O)OC(C)(C)C)CC4)c(C(=O)Nc4cc(C)cc(C)c4)cn3n2)cc1 | -6% | -15%
Cc1cccc(Cn2c(N3CCN(CC(N)=O)CC3)nc3c2c(=O)[nH]c(=O)n3C)c1 | 14% | 17%
CCNc1c(NC(=O)c2cc(Br)ccc2OC)c(=O)oc2ccccc12 | 2% | 5%
Cc1ccc(Cl)cc1NC(=O)c1nn(C)c2c1CCc1sccc1-2 | 16% | 55%[activator]
CC1=C(c2ccc(C)c(C)c2)S(=O)(=O)N=C1N1CCC(C(=O)NC(C)c2ccccc2)CC1 (stereo not given) | 114%[activator] | -8%
CN1C(=O)c2ccccc2Sc2ccc(NC(=O)Nc3ccccc3F)cc21 | 74%[activator] | 0%
O=C(N/N=C/c1ccccc1OCCCOc1ccccc1Cl)c1ccccc1 | 0% | 28%
N[n+]1cn[nH]c1 | -8% | 10%
COc1ccccc1Nc1nn2c(=O)c3ccc(C(=O)NCCc4ccccc4)cc3nc2s1 | -14% | 1%
Cc1cccc(-c2cccc3c4c([nH]c23)[C@@H]2C[C@H](N(C)C(=O)Nc3ccccc3)[C@H]([C@H](C)O)C(=O)N2CC4)c1 | ? | ?
CCCCCc1ccc(-c2ccc(C3=CC(=O)C(CCC)CC3)cc2)cc1 (stereo not given) | 1% | 15%
Cc1nc(-n2ccc3nc4ccn(C5CCCCCC5)c(=O)c4cc3c2=O)n[nH]1 | 10% | 5%
COC(=O)CNc1nc(-c2ccccc2)c2cc(C)ccc2n1 | -11% | -9%
CCn1cc(S(=O)(=O)N2CCN(c3cccc(OC)c3)CC2)cn1 | -4% | 5%
CCn1c(SC)nc2c([nH]c3ccccc32)c1=O | -5% | -19%

# Not a retest: an excerpt of the list.
structure | StopGo RLuc | 2A firefly
COC(=O)CNc1nc(-c2ccccc2)c2cc(C)ccc2n1 | -11% | -9%
CCn1cc(S(=O)(=O)N2CCN(c3cccc(OC)c3)CC2)cn1 | -4% | 5%

# Other records.
structure | StopGo RLuc | 2A firefly
CC(SCc1cccc(Cl)c1)C(=O)NC(N)=O (stereo not given) | 10% | 3%
Cc1ccc(-c2ccc(OC(=O)c3ccccc3)c(C)c2)cc1 | -3% | 8%
Cn1c2c(c(=O)n(C)c1=O)C(c1ccccc1C(F)(F)F)CC(=O)N2 (stereo not given) | -9% | -29%
CCCCN(C)C(=O)C1CCN(C(=O)c2ccc(Br)cc2)CC1 | 16% | 0%
CN1CCN(CCCNC(=O)C(=O)Nc2ccc3[nH]ccc3c2)CC1 | -10% | 44%[activator]
O=C(CCn1ccc2cc(S(=O)(=O)N3CCCCC3)ccc21)NCC1CCCO1 (stereo not given) | 105%[activator] | 0%
O=C(O)CCS(=O)(=O)Cc1cccc(Br)c1 | -3% | -1%
O=C(NCc1ccccc1F)c1ccc(-c2ccccc2)cc1 | 29% | 165%[activator]
CCn1c(C(=O)N2CCCC(C(=O)N3CCN(c4cc(C)ccc4C)CC3)C2)cc2sccc21 (stereo not given) | -17% | 17%
Cc1ccc(CCNC(=O)CCS(=O)(=O)c2ccc3c(c2)oc(=O)n3C)cc1 | -11% | -14%
